High-throughput results: PubChem, several laboratories
HNF4A DNA FP = change in binding of human HNF4 alpha to DNA; P41235; HNF4a-FITC DNA binding, fluorescence polarization, 1 h; activity change, % at 10 µM; actives 0.3% (n = 360,000); AID 1224865; in the data active means activity change above about 30%, passing the limit was not always enough;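 further: controls were the assay level and a saturating level of protein; the project sought stronger binding though the title names inhibitors; some compounds called inactive have numbers as strong as hits; positive values seem to mean higher polarization but the record does not say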
Target sequence (P41235 whole entry, looked up): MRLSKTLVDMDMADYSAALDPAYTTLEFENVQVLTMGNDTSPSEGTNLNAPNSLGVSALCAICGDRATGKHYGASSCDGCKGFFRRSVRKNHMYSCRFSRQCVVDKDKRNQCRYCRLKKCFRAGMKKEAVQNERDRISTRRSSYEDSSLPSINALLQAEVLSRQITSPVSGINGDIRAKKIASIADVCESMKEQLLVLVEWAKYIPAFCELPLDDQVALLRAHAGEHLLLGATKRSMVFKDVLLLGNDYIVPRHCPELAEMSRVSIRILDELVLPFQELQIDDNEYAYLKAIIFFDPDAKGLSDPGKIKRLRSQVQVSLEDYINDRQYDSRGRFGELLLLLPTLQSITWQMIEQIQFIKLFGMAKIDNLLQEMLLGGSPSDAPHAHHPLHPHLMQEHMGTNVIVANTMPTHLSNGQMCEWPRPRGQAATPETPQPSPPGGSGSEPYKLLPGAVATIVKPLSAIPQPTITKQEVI
E coli growth = inhibitors of Escherichia coli growth; actives 0.21% (n = 330,000); OD600, 23 h; stronger effect = lower value; OD600 absorbance (no concentration beside the values); AID 1053175;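 active means OD600 absorbance below the run mean of sample wells minus 3.6 SD, in any replicate, cut at about 0.56 in these data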;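 further: stock transfer was 300 nL into about 60 µL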
Vif TR-FRET = HIV-1 Vif–A3G interaction blockers – biochemical, TR-FRET, GST-Vif 1-94, biotin-A3G peptide, dose response retest, primary screen (AID 1117319); TR-FRET GST-Vif / biotin-A3G peptide binding; higher % means a stronger effect; test concentration not given here; strong numbers were not always called active; inhibition, %; hits with a dose series show IC50 in µM; actives 0.57% (n = 260,000);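 active means above the screen mean plus three standard deviations and confirmed in dose response; inconclusive means results disagree or hit not tested in dose response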;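 further: Vif residues 1-94 fused to GST binding biotinylated APOBEC3G peptide 110-148; 0% = full assay without inhibitor and 100% = GST in place of GST-Vif; retest series ran down from 100 µM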
RanGTP-Impb inh = disruptors of Ran-importin-beta complex formation – biochemical, FRET, CFP-Ran, YFP-importin-beta, homogeneous, primary screen. actives 1.1% (n = 300,000). inhibition, % (concentration not given with the values). cell-free CFP-Ran/YFP-importin-beta FRET ratio;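 active means most replicates above 15%; inconclusive means exactly half above 15%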;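 further: 0% = DMSO wells and 100% = Ran loaded with GDP instead of GTP; wells of about 40 µL received 100 nL stock; the first replicate is given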
UCH37 inh = human UCH37 deubiquitinating enzyme inhibition. purified proteasome/UCH37, Ub-AMC cleavage fluorescence. inhibition, % (concentration not given with the values). actives 0.33% (n = 330,000). AID 588478;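 active means mean of two replicates above 20%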;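 further: 0% = compound-free wells with enzyme and 100% = wells lacking proteasome; stock transfer was 100 nL into about 20 µL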
Target sequence (Q9Y5K5 whole entry, looked up): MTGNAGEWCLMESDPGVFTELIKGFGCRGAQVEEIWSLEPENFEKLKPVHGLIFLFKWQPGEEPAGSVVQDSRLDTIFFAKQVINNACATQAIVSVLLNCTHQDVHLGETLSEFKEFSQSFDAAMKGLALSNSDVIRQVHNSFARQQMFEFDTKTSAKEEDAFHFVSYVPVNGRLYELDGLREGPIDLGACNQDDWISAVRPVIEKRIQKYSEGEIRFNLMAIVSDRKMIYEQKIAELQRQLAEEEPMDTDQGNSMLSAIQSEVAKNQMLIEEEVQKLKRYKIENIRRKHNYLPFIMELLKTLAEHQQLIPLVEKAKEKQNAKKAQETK
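Material: human UCH37 enzyme supplied as purified proteasome complex. Measure: % inhibition of Ub-AMC cleavage fluorescence. Medium: pH 7.4 Tris-HCl (50 mM) with ovalbumin, ATP-MgCl2, DTT. Times: 30 min preincubation with enzyme, 25 min cleavage at room temperature. Detection: AMC fluorescence intensity at 355/460 nm.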
MLL AF4-AF9 inh = MLL-AF4/AF9 protein interaction inhibition | inhibition, % at 10 µM | AlphaScreen, biotin-AF4 peptide binding to FLAG-AF9 | AID 651704 | actives 0.47% (n = 350,000) | P42568;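 active means every replicate reaching a set inhibition limit, whatever the replicate mean, cut at about 25% in these data; inconclusive means mean inhibition reaches that limit but some replicates miss it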;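 further: 0% = plate neutral control median and 100% = total signal loss; the record names both 10 and 1 µM as test concentration; the first replicate is given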
FGF22 binding = shifts melting point of recombinant human FGF22. Q9HCT0. recombinant FGF22 thermal shift, SYPRO orange fluorescence; percent of sucrose octasulfate shift, DMSO zero. calls only at 9.99 µM. actives 1.5% (n = 340,000). AID 651658;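 active means melting point raised past a set limit in the mean and every replicate; inconclusive means no clear call; three in four hits are not shown here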
Target sequence (Q9HCT0 whole entry, looked up): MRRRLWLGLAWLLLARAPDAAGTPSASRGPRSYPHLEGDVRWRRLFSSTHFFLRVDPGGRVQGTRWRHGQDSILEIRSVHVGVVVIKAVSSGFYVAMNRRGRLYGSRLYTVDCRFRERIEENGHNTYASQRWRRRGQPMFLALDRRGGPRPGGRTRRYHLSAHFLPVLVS
* marks the source's active call; other numbers are inactive results; i = inactive; ? = inconclusive; . = not tested or not shown; & = joins results of further samples. Only part of the results is shown, so the mix of outcomes need not match the whole.

SMILES	HNF4A DNA FP	E coli growth	Vif TR-FRET	RanGTP-Impb inh	UCH37 inh	MLL AF4-AF9 inh	FGF22 binding
C=CCOC(=O)C1=C[C@H](c2ccc(Br)cc2)C[C@H](OCc2ccc(CO)cc2)O1	2.5	.	.	-3.6	1.1	-1.4	i
COc1ccccc1CNC(=O)[C@H](C)NC(=O)C1CCN(C(=O)[C@@H](N)CCSC)CC1	0.2	0.73	.	-0.1	1.9	-2.1	i
COC(=O)c1ccccc1NC(=O)/C=C/c1ccco1	-6.2	0.65	?	3.1	1.0	-16	i
O=S1(=O)CCC(n2nccc2-c2ccccc2)C1 (stereo unspecified)	3.4	0.64	.	-2.5	2.4	-25	i
Cc1cccc(C(=O)Nc2nnc(S(=O)(=O)N(C)Cc3ccco3)s2)c1	1.8	0.65	?	5.9	1.6	-1.1	i
CS(=O)(=O)Nc1ccc(C(=O)NCc2ccco2)cc1	-0.8	0.71	-1%	-0.1	-0.7	.	.
COc1ccccc1OCCn1cc(/C=N/NC(=O)c2ccncc2)c2ccccc21	2.9	.	7%	-1.6	.	4.1	i
O=C(COC(=O)c1ccc(Cl)c(S(=O)(=O)N2CCCC2)c1)NC1CCCC1	2.1	0.7	8%	1.4	0.1	.	.
Cc1cccc(OCC(=O)NNC(=O)Cn2c(=O)cnc3ccccc32)c1	-4.9	0.69	0%	3.7	1.3	-1.2	i
CCOC(=O)C1(Cc2cccc(OC)c2)CCCN(Cc2c(C)nn(C(C)C)c2C)C1 (stereo unspecified)	3.7	0.69	-6%	-0.3	0.4	7.5	i
C1CCC2=NCCCN2CC1	-4.2	0.74	0%	-2.2	1.9	.	.
O=C(c1ccco1)N1CCN(Cc2cc(=O)c(OCc3cccc(Cl)c3)co2)CC1	-1.2	0.63	2%	-5.0	4.6	-4.5	i
O=C1NC(c2cccc3ccccc23)Nc2ccccc21 (stereo unspecified)	1.2	.	1%	.	.	-2.2	i
O=C(C1CC1)N1CCc2cc(Br)c(S(=O)(=O)N3CCCCCC3)cc21	2.5	0.68	-1%	.	3.9	7.8	i
CCSc1nnc(NC(=O)c2ccco2)s1	-3.2	0.66	-2%&-8%	2.0	6.5	.	.
COc1ccc(N=Nc2c(C)n[nH]c2C)cc1	1.5	0.65	.	-1.8	8.7	8.3	i
C=CSc1sc(Cl)c(N(C)C)c1[N+](=O)[O-]	-6.8	0.71	-5%	1.4	3.4	-1.6	i
COc1ccc(NC(=O)C2c3ccccc3OCC(=O)N2CC(F)(F)F)cc1 (stereo unspecified)	0.2	.	.	.	.	0.1	i
CCCCC1Cc2[nH]c(=S)[nH]c(=O)c2C(c2ccc(F)cc2)O1 (stereo unspecified)	1.5	.	.	.	.	-4.1	i
CCOC(=O)N1CCN(C(=O)c2cccc(-n3c(=S)[nH]c4cc(Cl)ccc4c3=O)c2)CC1	-4.6	0.72	-5%&3%	-3.7	6.5	.	.
Cn1c(=O)c2c(ncn2CC(=O)N/N=C/C=C/c2ccco2)n(C)c1=O	-1.9	.	6.4µM*	2.6	.	-5.9	i
O=C(Cc1cccs1)NCCn1ccc2ccccc21	3.8	0.77	0%	-3.9	3.6	-1.7	i
F[B-](F)(F)c1cc2ccccc2s1	3.2	.	.	.	.	-4.4	i
Cc1ccc(C(=O)NCCNC(=O)c2ccccn2)cc1	2.4	0.69	.	11	6.8	-7.5	i
Cc1ccc(NC(=O)c2ccc([N+](=O)[O-])cc2Cl)nc1	-2.9	0.68	17%	-3.0	3.9	-1.9	i
Cc1ccc(C2CCN(C(=S)NC3CCCCC3)C2)cc1 (stereo unspecified)	-5.0	0.64	-2%	3.8	7.5	-7.1	i
CCc1ccc2c(c1)Sc1ccccc1CC2N1CCN(C)CC1 (stereo unspecified)	-1.6	0.58	.	0.6	4.0	12	i
COc1ccc2ccccc2c1C=NN1CCCCC1	-1.6	.	4%	.	.	21	i
COc1cc2c(=O)n(CCC(=O)NCC3CCCO3)c(=O)n(CC(=O)Nc3ccc(F)cc3)c2cc1OC (stereo unspecified)	-0.3	0.67	.	-1.8	-13	0.2	i
CC(O)(c1cccc(F)c1)c1nc(-c2ccoc2)cs1 (stereo unspecified)	1.9	.	.	.	.	-5.7	i
CCOC(=O)C1(Cc2ccccc2)CCCN(C(=O)c2cnn(CC)c2)C1 (stereo unspecified)	-1.1	0.7	.	2.4	2.7	-0.5	i
O=c1ccccn1Cc1c(F)cccc1Cl	4.2	0.68	71%	-5.3	4.2	.	.
COc1ccccc1CN1C[C@@H]2C[C@@H](c3ccc4nsnc4c3)N3CCC[C@@]23C1=O	5.0	.	6%	?	1.9	?	i
C=CCNC(=O)CSc1nc2sccc2c(=O)n1-c1ccccc1	4.1	0.69	28%	0.8	1.5	-3.9	i
O=C(COC(=O)c1ccc(O)cc1O)Nc1cc(-c2ccccc2)nn1-c1ccccc1	3.1	0.69	0%	6.6	-1.6	0.8	i
O=c1oc(-c2cccs2)nc2sc3c(c12)CCCC3	4.5	0.71	?	5.3	-52	.	.
CC(C)Nc1ncnc2c1cnn2-c1ccccc1	4.3	0.71	13%	0.0	2.6	1.3	i
CC(Oc1ccc(F)cc1F)C(=O)/C=C/N(C)C (stereo unspecified)	-0.7	0.66	28%	10	4.3	.	.
Cc1ccc2nc3n(c(=O)c2c1)-c1cc2ccccc2cc1C(=O)NC3Cc1ccc(O)cc1 (stereo unspecified)	2.2	.	-1%	.	.	0.3	i
Cc1nn(Cc2ccccc2Cl)c(C)c1NC(=O)CCCn1nc([N+](=O)[O-])c(Cl)c1C	5.1	0.62	4%	?	-2.0	.	.
Cc1cc(C)cc(NC(=O)c2ccc3c(c2)CCN3S(C)(=O)=O)c1	-0.8	0.67	-12%	1.1	0.5	-5.1	i
O=C(c1ccc(Cn2ccc([N+](=O)[O-])n2)cc1)N1CCN(Cc2ccccc2)CC1	-1.2	0.68	11%	-1.7	6.1	2.8	i
COc1ccc(NC(=S)N2CCC(NC(=O)c3ccccc3C)CC2)cc1	2.4	0.68	.	4.1	2.8	-1.1	i
CCOCCc1nn2c(=O)cc(CSCC(=O)Nc3ccccc3)nc2s1	-1.4	0.72	.	-9.1	3.4	-1.0	i
COc1ccc([C@H]2C[C@H](O)[C@@H](n3cc(C4CC4)nn3)CN2CC2CCCCC2)cc1	-5.7	.	.	.	.	2.3	i
CCOC(=O)c1ccc2nc(C)c(CCC(C)=O)c(Cl)c2c1	4.3	0.67	?	-3.3	7.0	.	.
COC(=O)C1CCN(C(=O)COC(=O)[C@@H]2CC(O)CN2S(=O)(=O)c2ccc3c(c2)OCCO3)CC1 (stereo partly specified)	1.6	0.67	-5%	3.9	0.1	.	.
COc1ccc(O)c(CN2CCCC(C(=O)Nc3cccc(-n4cccn4)c3)C2)c1 (stereo unspecified)	0.8	0.68	4%	3.0	-2.7	3.4	i
C/C(=C\c1ccc2c(c1)OCO2)C1Nc2cccc3cccc(c23)N1	-0.6	.	.	.	1.4	7.5	i
Cc1ccc(NC(=S)NC(NC(=O)c2ccco2)C(Cl)(Cl)Cl)cc1 (stereo unspecified)	0.3	0.61	1%	-4.8	0.5	.	.
CCc1nn(CC(=O)NC(C)CCc2ccccc2)c(=O)c2cc3cc(F)ccc3n12 (stereo unspecified)	1.8	0.68	.	-0.9	-3.4	-8.3	i
CC(Oc1ccccc1F)C(=O)NNC(=O)CCS(=O)(=O)c1ccccc1Cl (stereo unspecified)	-2.6	0.65	4%	2.8	-1.4	-3.5	i
Cc1cc2cc(CNC(=O)c3cccc([N+](=O)[O-])c3)ccc2[nH]1	-4.9	0.69	?	-1.6	3.1	1.5	i
CN(CC(=O)Nc1cccc(F)c1)C(=O)c1ccc(OCc2ccccc2)cc1	1.8	0.67	-3%	.	-1.8	-1.9	i
COc1ccccc1C1NC(=O)NC(C)=C1C(=O)Nc1cccc(C)c1C (stereo unspecified)	1.2	0.7	4%	3.1	4.9	4.0	i
Cc1ccc2nc(Nc3ccc(C)c(Cl)c3)c3nncn3c2c1	2.7	0.7	.	0.8	-63	-1.7	i
O=C(c1ccc(F)cc1)C1CCN(C(=S)Nc2ccccc2Cl)CC1	-1.8	0.66	5%	-2.1	0.8	0.0	i
NS(=O)(=O)c1ccc(CCNC(=O)COC(=O)C2CCC2)cc1	-4.2	.	.	2.4	.	-1.0	i
COc1ccc(N2C(=O)/C(=C/N(C)C)NC2=S)cc1	-0.6	0.67	-3%	?	23*	-6.7	i
Cc1cc(NC(=O)C(C)Oc2ccc(Cl)cc2Cl)no1 (stereo unspecified)	-0.9	0.71	.	38*	1.5	-5.9	i

In the list so far, these have an aryl thioether with sulfur outside any ring:
SMILES	HNF4A DNA FP	E coli growth	Vif TR-FRET	RanGTP-Impb inh	UCH37 inh	MLL AF4-AF9 inh	FGF22 binding
CCSc1nnc(NC(=O)c2ccco2)s1	-3.2	0.66	-2%&-8%	2.0	6.5	.	.
C=CSc1sc(Cl)c(N(C)C)c1[N+](=O)[O-]	-6.8	0.71	-5%	1.4	3.4	-1.6	i
C=CCNC(=O)CSc1nc2sccc2c(=O)n1-c1ccccc1	4.1	0.69	28%	0.8	1.5	-3.9	i

Remaining list, next part:
SMILES	HNF4A DNA FP	E coli growth	Vif TR-FRET	RanGTP-Impb inh	UCH37 inh	MLL AF4-AF9 inh	FGF22 binding
CCN(CC(=O)Nc1ccc([N+](=O)[O-])cc1OC)c1ccccc1	1.1	0.69	-19%	0.5	5.5	.	.
COCC(=O)N1CCC(Oc2ccc(C(=O)NCc3csc(C(C)C)n3)cc2)CC1	1.1	0.68	.	-3.6	-1.8	0.5	i
Cc1ccc(Cn2c(SCc3cccnc3)nc3c2c(=O)n(C)c(=O)n3C)cc1	-0.6	0.74	17%	7.1	1.4	.	.
CC(C(=O)N1CCc2ccccc21)N1CCN(S(=O)(=O)c2cccs2)CC1 (stereo unspecified)	-2.0	0.64	-13%	.	1.9	1.0	i
OC1CCN(c2c3c(nc4cc(-c5cccc(F)c5)nn24)CCCC3)CC1	1.6	0.66	14%	4.6	-87	-36	i
CN1CCN(CC(O)COCc2ccc3c(c2)OCO3)CC1 (stereo unspecified)	2.1	0.68	4%	2.5	2.8	0.2	i
COc1ccc(CCNC(=O)c2cc(-c3cc(C)c(C)cc3O)n[nH]2)cc1OC	0.4	0.72	11%	-0.6	4.0	.	.
CC(C)(C)c1ccc(OCC(=O)NCc2ccco2)c(Br)c1	-4.2	0.65	13%	1.3	4.9	.	.
CCCn1nnc(NC(=O)COc2cc(C)ccc2C(C)C)n1	-0.9	0.67	4%	2.0	0.3	.	.
CCCCCC1CCC(c2nnc(SCC(C)=O)o2)CC1 (stereo unspecified)	0.9	.	.	-4.0	.	-2.9	i
COc1ccc(S(=O)(=O)Nc2ccccc2C(=O)NCc2cccnc2)cc1OC	0.9	0.69	3%	2.2	-31	-1.5	i
O=C(NCCc1ccc(Cl)cc1)c1cc2ccccn2n1	-1.5	0.68	-2%	-1.7	2.8	-0.3	i
COC(=O)C(Cc1ccc(O)cc1)N1Cc2ccccc2C1=O (stereo unspecified)	2.5	0.65	0%	-0.6	1.0	0.6	i
Brc1ccccc1-c1nnc(-c2cccnc2)o1	1.1	0.73	1%	1.4	1.8	.	.
COc1cc2c(cc1OC)C(c1cc3cc4c(cc3[nH]c1=O)OCO4)N(C(=O)C1CC1)CC2 (stereo unspecified)	0.7	0.67	-3%	-0.9	-45	1.8	i
